RN4220 kill: growth inhibition of S. aureus RN4220, primary screen, OD600 | inhibition, % (test concentration not listed) | 16 h | AID 1259311, 2017 | hit rate 0.33% among 330,000;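 active = z-score of -3 or lower and OD600 up to 0.18 on both plates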;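 note: plate controls were untreated cells for no effect and reference antibiotic for full effect; stock transfer was 100 nL into about 80 µL; one replicate is shown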
Mtb hypoxia rep: PubChem AID 1159583. hit rate 0.1% among 300,000. M. tuberculosis hypoxia-regulated fluorescent reporter, fluorescence. fluorescence inhibition, % (concentration not given with the values);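 active = 35 to 45% if threefold the growth effect, above 45% if 1.5-fold the growth effect; inactive = the rest, general growth blockers included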;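 note: wells of about 50 µL received 100 nL stock; 0% = vehicle wells and 100% = reference inhibitor wells; whole bacteria with a GFP reporter of the hypoxia response; strong numbers were not always called active; many hits fall short of the cut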
PrP UTR inh: inhibition of PrP 5' UTR reporter expression. inhibition, % (concentration not given with the values). hit rate 0.35% among 340,000. cell-based PrP 5' UTR mRNA reporter, plate reader. AID 488862, 2010;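 active = every replicate at 50% or more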;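 note: 0 = median of the neutral control wells; tested in H4 reporter cells; numbers are from one replicate; inactives centre near -14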
Bead autofluor: compound fluorescence in toxin protease inhibitor counterscreen | hit rate 3.1% among 360,000 | fluorescence intensity (concentration not given with the values) | compound autofluorescence counterscreen, microsphere flow cytometry; hits give high values | AID 624483;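 active = at least 3 SD above the mean of all compounds, about 16000 in these data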;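 note: 100 nL of 1 mM stock went into each well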
ugtP null kill: growth inhibition of ugtP-null S. aureus, primary screen, RN4220 ugtP deletion, OD600 | 16 h; some inactives read as strong as hits | growth inhibition, % (test concentration not listed) | hit rate 0.54% among 330,000 | AID 1259309, 2017;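 active = z-score under -3 and OD600 up to 0.15 on both plates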;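 note: plate controls were untreated wells for no effect and antibiotic for full effect; wells of about 80 µL received 100 nL stock; the first replicate is given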
BJeLR lethal: MLPCN primary cell-based screen for lethality selective to Ras in HRASV12 cells. BJeLR (HRASV12) viability, CellTiter-Glo ATP luminescence, 48 h; reference of the scale not given here. inhibition, % (concentration not given with the values). hit rate 0.17% among 300,000;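 active = replicate mean above 50%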;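 note: 50 nL library stock added to about 25 µL; numbers are from one replicate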
Mtb hypoxia rep growth: also measured in Mtb hypoxia rep; calls as there; growth inhibition, %; measured here: M. tuberculosis growth (absorbance);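 0% = vehicle and 100% = reference antibiotic; read after six days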
* marks the source's active call; other numbers are inactive results; · = no result given.

No.	molecule	RN4220 kill	Mtb hypoxia rep	Mtb hypoxia rep growth	PrP UTR inh
1	COc1ccc(NC(=S)N(CCc2nc3cc(C)c(C)cc3[nH]2)Cc2cccnc2)cc1	4.6	-1	1	-14
2	Cc1cc(C(=O)CN2C(=O)C(=O)N(Cc3ccco3)C2=O)c(C)n1CCc1ccccc1	5.9	11	-1	-36
3	COc1cc(N2CCOCC2)ncn1	2.7	6	6	-33
4	CC(C)(C)c1ccc(C(=O)NC(Cc2ccccc2)C(=O)O)cc1 (stereo not given)	1.0	-11	1	-7
5	Cc1ccc(C=Nn2c(COc3ccccc3)n[nH]c2=S)cc1	3.5	4	5	·
6	CC(=O)c1ccc(OCc2cc(C(=O)NCCc3ccc(Cl)cc3)no2)cc1	7.4	12	7	-26
7	CSc1nsc(SC)c1C(=O)Nc1ccc(Cl)cc1	4.9	0	-5	-18
8	O=C(NC(=S)Nc1ncc(Br)cc1Br)c1ccccc1	9.2	9	-2	-62
9	COc1ccc(C(CNC(=O)c2ccc(S(=O)(=O)Nc3cccc(C)c3C)cc2)N2CCOCC2)cc1 (stereo not given)	2.2	9	6	-11
10	O=C(/C=C/c1cccs1)c1ccc([N+](=O)[O-])cc1	9.3	1	5	-8

No.	Bead autofluor	ugtP null kill	BJeLR lethal
1	9148	-2	5
2	3672	5	·
3	23005*	-6	0
4	22268*	-3	6
5	·	-2	·
6	4889	4	6
7	4142	-3	-12
8	4410	-10	2
9	3870	3	·
10	3561	2	5

Shown in transposed form: 4 of the compounds above
9. COc1ccc(C(CNC(=O)c2ccc(S(=O)(=O)Nc3cccc(C)c3C)cc2)N2CCOCC2)cc1 (stereo not given)
8. O=C(NC(=S)Nc1ncc(Br)cc1Br)c1ccccc1
7. CSc1nsc(SC)c1C(=O)Nc1ccc(Cl)cc1
6. CC(=O)c1ccc(OCc2cc(C(=O)NCCc3ccc(Cl)cc3)no2)cc1

compound no.	9	8	7	6
RN4220 kill	2.2	9.2	4.9	7.4
Mtb hypoxia rep	9	9	0	12
Mtb hypoxia rep growth	6	-2	-5	7
PrP UTR inh	-11	-62	-18	-26
Bead autofluor	3870	4410	4142	4889
ugtP null kill	3	-10	-3	4
BJeLR lethal	·	2	-12	6

New compounds follow:
No.	molecule	RN4220 kill	Mtb hypoxia rep	Mtb hypoxia rep growth	PrP UTR inh
11	CC(C)(C)c1cc(NCCCn2ccnc2)n2ncc(-c3ccc(Cl)cc3)c2n1	41	5	4	-64
12	O=C(CN1CCC(Cc2ccccc2)CC1)NC(=O)NC1CCCCC1	4.3	14	6	-26
13	CN(C)c1ccc(C2=NOC(CN3C(=O)c4ccccc4S3(=O)=O)C2)cc1 (stereo not given)	4.5	9	9	-51
14	O=C(NNC(=O)C1CCCCC1)c1ccc(Br)cc1	-0.2	8	-14	-16
15	CN(c1ccc(F)cc1)S(=O)(=O)c1ccc(Cl)c(C(=O)OCC(=O)NC2CC2)c1	4.8	8	-5	-11
16	CC(C)COc1ccc(C(=O)NCc2ccco2)cc1	-3.8	15	11	-22
17	CC(=NNC(=O)c1ccc(Cn2cc(Br)cn2)o1)c1cccc(NC(=O)C(C)(C)C)c1	7.6	15	3	·
18	CCOC(=O)c1ccc2[nH]c(-c3ccc(S(=O)(=O)F)cc3)cc(=O)c2c1	·	·	·	-9
19	Cc1ccc(C(=O)ON=Cc2ccc(N3CCCCC3)c([N+](=O)[O-])c2)cc1	4.8	3	11	·
20	O=C1CC(NCc2ccc3c(c2)OCO3)C(=O)N1CCc1ccccc1 (stereo not given)	5.2	0	-1	-16

No.	Bead autofluor	ugtP null kill	BJeLR lethal
11	25531*	63	-7
12	6399	10	5
13	9444	-1	-13
14	2725	4	6
15	4848	6	·
16	8499	20	-12
17	·	-1	·
18	3831	·	1
19	·	4	·
20	11572	-2	4

Additional records.
No.	molecule	RN4220 kill	Mtb hypoxia rep	Mtb hypoxia rep growth	PrP UTR inh
21	COC(=O)c1ccccc1NC(=S)N(Cc1ccc2c(c1)OCO2)Cc1cc2ccc(OC)cc2[nH]c1=O	·	·	·	-21
22	O=C(c1cccc(S(=O)(=O)N2CCCCC2)c1)N1CCc2ccccc21	7.6	11	4	-9
23	CC(C)C(=O)Nc1ccc(Nc2ccccc2)cc1	-3.5	5	3	-20
24	CCOC(=O)C1=NN(c2ccccc2)C2=NC(C)=C(C(=O)OC)C(c3ccc(C)cc3)N12 (stereo not given)	-16	5	1	-53
25	COc1ccc(/C=C(\C#N)c2nc3ccc(C)cc3[nH]2)cc1Oc1ccc(C(F)(F)F)cc1[N+](=O)[O-]	13	6	-7	-13
26	Cc1ccccc1CC1(CO)CCCN(Cc2ccccc2Cl)C1 (stereo not given)	0.9	2	6	-24
27	CCOC(=O)c1c(C)nc(C)c(C(=O)OCC)c1-c1ccc(OC)cc1	1.3	10	19	-17
28	O=C1CCC(=O)N1CN(C(=O)c1ccco1)c1ccccc1	-1.6	·	·	-12
29	CC1(C)C(=O)Nc2ccccc2N1C(=O)COC(=O)Cn1cnc2ccccc2c1=O	3.4	3	12	-13
30	CC1(C)Oc2ccc(C(=O)NC3CC3)cc2N(CC(=O)N2CCOCC2)C1=O	1.7	15	7	-14

No.	Bead autofluor	ugtP null kill	BJeLR lethal
21	2421	·	7
22	2313	-2	-5
23	3438	0	11
24	2123	-15	-10
25	11206	-37	2
26	6809	-2	7
27	10610	15	9
28	3940	2	-8
29	4344	4	1
30	10502	-4	-13

Next part.
No.	molecule	RN4220 kill	Mtb hypoxia rep	Mtb hypoxia rep growth	PrP UTR inh
31	O=C(Cc1c(F)cccc1Cl)Nc1ccon1	5.5	8	12	-10
32	COc1ccc(Br)cc1/C=N/NC(=O)c1nc(-c2ccccc2)n2c1CCCCC2	·	·	·	-20
33	COCCn1c(SCC(=O)NCCc2ccc(OC)c(OC)c2)nc2c([nH]c3ccccc32)c1=O	1.9	-3	7	0
34	O=C(NCCN1C(=O)S/C(=C\c2cccnc2)C1=O)c1cc(S(=O)(=O)N2CCOCC2)ccc1F	1.6	4	-1	-12
35	CC(O)(c1ccccc1)C(C(c1ccccc1)N1CCOCC1)N1CCOCC1 (stereo not given)	11	10	12	-13
36	COCCNC(=O)C1Cc2c(ccc3ccccc23)O1 (stereo not given)	4.5	3	7	-73
37	O=[N+]([O-])c1cccc(S(=O)(=O)N/N=C\c2ccc3c(c2)OCO3)c1	·	·	·	-9
38	O=C(NCCCCNC(=O)c1cccnc1Cl)c1cccnc1Cl	1.3	-7	11	-6
39	CCN(C(=O)CSc1nnnn1-c1ccc(Cl)cc1)C1CCS(=O)(=O)C1 (stereo not given)	4.3	-4	6	-18
40	C#CCNC(=O)C1=C[C@H](c2ccc(Br)cc2)[C@@H](CCCO)[C@H](OCC)O1	·	·	·	-12

No.	Bead autofluor	ugtP null kill	BJeLR lethal
31	11273	4	10
32	4025	·	4
33	2439	2	-7
34	3524	8	-10
35	3973	-1	·
36	5074	8	-6
37	6742	·	1
38	5999	0	-5
39	2790	-3	·
40	3296	·	0

The list goes on.
No.	molecule	RN4220 kill	Mtb hypoxia rep	Mtb hypoxia rep growth	PrP UTR inh
41	O=C(O)Cn1cc(C(=O)C2CC2)c2ccccc21	-4.3	-7	12	-9
42	O=C(NCCc1ccc(Cl)cc1)C1COc2ccccc2O1 (stereo not given)	2.1	24	34	-6
43	COc1cccc(NC(=O)CN(C)C(C)C(=O)N2CCCCC2)c1 (stereo not given)	1.1	1	12	-15
44	O=c1oc(-c2cccs2)nc2ccccc12	1.3	15	22	-3
45	Cc1nc(C)c(C(=O)N(c2ccc(F)cc2)C(C(=O)NCC2CCCO2)c2ccccc2)s1 (stereo not given)	5.9	8	9	-30
46	O=C(c1ccc(NC(=S)Nc2ccc(F)cc2F)cc1)N1CCOCC1	3.7	-2	1	-11
47	O=C(Nc1nccs1)c1cc2cc(Cl)ccc2oc1=O	3.1	12	13	-10
48	CCC(=O)N1CCc2cc(S(=O)(=O)CCC(=O)N(C)c3ccc(OC)cc3)ccc21	0.7	4	3	-9
49	CC(=O)c1ccc(NS(=O)(=O)c2ccc3ccccc3c2)cc1	4.6	-8	-3	-26
50	COc1cccc(OCCn2ccnc2)c1	0.4	0	5	-12

No.	Bead autofluor	ugtP null kill	BJeLR lethal
41	11409	-2	8
42	6149	4	1
43	2943	3	·
44	3257	-9	3
45	5094	-1	3
46	6151	7	0
47	3789	-1	6
48	5101	2	2
49	10701	-8	-8
50	23533*	-6	3

Later entries
No.	molecule	RN4220 kill	Mtb hypoxia rep	Mtb hypoxia rep growth	PrP UTR inh
51	O=[N+]([O-])c1cccc(/C=N/n2c(-c3cccnc3)n[nH]c2=S)c1	·	·	·	-24
52	CCCCn1c(O)c(C(C)=NCc2ccc3c(c2)OCO3)c(=O)[nH]c1=O	4.8	-12	-9	-12
53	O=C(Cn1cnc2c(NCc3ccccc3)ncnc21)NCCCN1CCCC1=O	5.3	-16	9	-10
54	COc1ccc(NC2=C(Cl)C(=O)N(c3ccccc3)C2=O)c(OC)c1	9.4	-11	-13	-14
55	CC(C)NC(=O)N(C)CC1Oc2ccc(NS(=O)(=O)c3ccc(Cl)cc3)cc2CC(=O)N(C(C)CO)CC1C (stereo not given)	3.5	5	8	·
56	Cn1ccc(C(=O)Nc2sc3c(c2C#N)CCC3)n1	2.3	6	7	-5
57	CCCC(CCC)C(=O)OC[N+](C)(C)CCOC(=O)C(O)(c1ccccc1)C1CCCC1 (stereo not given)	-3.8	-6	-1	-32
58	Cc1ccc(CC(=O)Nc2ccc(Cl)cn2)cc1	0.2	·	·	-50
59	S=C(NC1CCCC1)NC1CCCC1	-0.6	17	6	-7
60	Cc1[nH]cc(Br)c(=O)c1Oc1ncc(C(F)(F)F)cc1Cl	3.8	-6	7	-11

No.	Bead autofluor	ugtP null kill	BJeLR lethal
51	2584	·	14
52	4803	-5	0
53	3482	0	·
54	2159	15	2
55	·	-2	·
56	4466	-4	2
57	2304	-17	11
58	3729	6	8
59	2883	7	-5
60	2149	10	7

The list goes on.
No.	molecule	RN4220 kill	Mtb hypoxia rep	Mtb hypoxia rep growth	PrP UTR inh
61	C#CCOCCOCCOCCNc1nc(N2CCOCC2)nc(N2CCN(C(=O)[C@H]([C@@H](C)CC)n3cc([C@@H](N)CC(C)C)nn3)CC2)n1	·	·	·	-10
62	Cc1ccc(S(=O)(=O)/N=C(/c2ccccc2)N(C)c2ccc(O)cc2)cc1	·	·	·	-32
63	Cc1ccc(S(=O)(=O)c2nc(S(=O)(=O)c3ccc(C)cc3)c(N3CCN(CCO)CC3)s2)cc1	4.9	10	-6	-3
64	COC(=O)c1sc(N(C)C)c(C#N)c1-c1ccccc1	5.2	11	9	-31
65	Cc1cc(C)cc(NC(=O)CN2CCN(c3ccccn3)CC2)c1	-0.3	12	3	-21
66	COC(=O)CN(c1ccc(C)cc1)S(=O)(=O)c1c(C)[nH]c(=O)[nH]c1=O	0.0	1	-1	-31
67	Cc1nc(/C=C\C(=O)O)c2cc(C)oc2n1	·	·	·	-21
68	O=S(=O)(/C=C/c1ccccc1)N1CCN(c2nc(-c3cccnc3)nc3ccccc23)CC1	·	·	·	-11
69	COc1ccc(F)cc1C(=O)C1CCCN(C(=O)C2=C(C)OCCO2)C1 (stereo not given)	1.4	-2	6	-12
70	C(=NNc1nc2ccccc2[nH]1)c1ccccn1	1.7	-8	-14	·

No.	Bead autofluor	ugtP null kill	BJeLR lethal
61	3126	·	10
62	2501	·	-6
63	4458	9	-12
64	3269	14	-4
65	2709	-4	1
66	8398	3	4
67	3633	·	3
68	4127	·	-9
69	2091	4	0
70	·	0	·

Further entries.
No.	molecule	RN4220 kill	Mtb hypoxia rep	Mtb hypoxia rep growth	PrP UTR inh
71	CC(/C=N/N1CCN(c2ccccc2)CC1)=C\c1ccco1	·	·	·	-80
72	CCN=c1sc(C(=O)NCCc2ccccc2)cc(=O)n1CC	3.7	8	8	-15
73	O=C1NC(=O)C(CCc2ccncc2)(CCc2ccncc2)C(=O)N1CCc1ccccc1	3.6	13	9	-28
74	COc1ccc(NC(=O)c2cncc(Br)c2)c(S(=O)(=O)N2CCOCC2)c1	6.9	5	11	-14
75	Cc1cc(C)cc(N2C(=O)CC(Sc3nnnn3-c3ccccc3)C2=O)c1 (stereo not given)	-3.5	-2	0	-16
76	CC(=O)c1ccc(OCc2cc(C(=O)N(C)C3CCOC3)no2)cc1 (stereo not given)	2.8	2	-5	-43

No.	Bead autofluor	ugtP null kill	BJeLR lethal
71	6312	·	36
72	4319	8	-15
73	4541	2	1
74	2851	-3	-1
75	8342	1	8
76	4852	6	10

Bioassay records as filed in PubChem BioAssay.
